Source: PubChem BioAssay (ICCB-Longwood Screening Facility, Harvard Medical School)
GIV Gai3 FP: inhibitors of GIV peptide binding to Galpha-i3, primary screen, biochemical, fluorescence polarization, FITC-GIV GBA peptide, rat Galphai3. percent of control (FP), % (no concentration beside the values). Guanine nucleotide-binding protein G(i) subunit alpha-3 (Rattus norvegicus), P08753. 210,000 compounds, 0.42% hits. AID 1224905, 2016. 90 min; hits give low values; scaled: aluminum fluoride 0%, vehicle 100%;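 active = replicate mean at 85% of control or lower, very high polarization wells dropped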;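 note: wells of about 15 µL received 100 nL stock; the first replicate is given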
Target sequence (P08753 whole entry, looked up): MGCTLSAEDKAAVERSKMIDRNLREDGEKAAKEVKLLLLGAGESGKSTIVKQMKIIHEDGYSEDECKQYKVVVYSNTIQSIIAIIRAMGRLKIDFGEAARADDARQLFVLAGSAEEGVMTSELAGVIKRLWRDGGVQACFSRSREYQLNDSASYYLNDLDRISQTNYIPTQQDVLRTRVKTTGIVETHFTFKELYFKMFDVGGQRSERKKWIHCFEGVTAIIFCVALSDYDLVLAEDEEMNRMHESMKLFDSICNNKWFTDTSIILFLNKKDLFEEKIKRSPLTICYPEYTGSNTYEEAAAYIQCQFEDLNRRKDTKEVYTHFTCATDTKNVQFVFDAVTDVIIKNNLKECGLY
Sa growth inh: S. aureus growth inhibition at 42 and 30 °C, primary screen, LtaS inhibitor project, RN4220, two temperatures. OD600, 20 h, 42 °C; hits give low values. relative growth, % (concentration not given with the values). 170,000 compounds, 0.53% hits;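 active = growth at 42 °C up to 50% and 20 or more points under that at 30 °C, or under 10% at both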;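 note: 300 nL library stock went into each well; scaled to the means of positive and negative controls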
HCMV NEC inh: inhibitors of HCMV UL50-UL53 interaction, biochemical, HTRF. HCMV UL50-UL53 nuclear egress complex (human cytomegalovirus). normalized percent inhibition. inhibition, % (concentration not given with the values). 190,000 compounds, 0.15% hits;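 active = both replicates at 50% or more, plus weaker picks with an unusually low signal ratio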;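 note: stock transfer was 100 nL into about 20 µL; 0% = negative control wells and 100% = wells with untagged competitor protein; inactives centre near -12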
Sa growth inh second temp: recorded beside Sa growth inh, whose call it bears; relative growth, %; measured here: growth at 30 °C;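 optical density after 20 h as mean of two plates; 100% = untreated growth and lower means inhibition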
Active calls of the source: *; nt = no result given.

entry | SMILES | Sa growth inh second temp | HCMV NEC inh | GIV Gai3 FP | Sa growth inh
1 | CC(C)OC(=O)c1ccc(NC(=O)c2ccc(Cn3cc(Br)cn3)cc2)cc1 | 80 | 0 | 98 | 106
2 | O=C1CSC(c2ccccc2)N1CCc1ccccc1 (configuration not stated) | 91 | nt | 99 | 108
3 | Cc1ccc(CNC(=O)Nc2ccc3c(c2)N(C)C(=O)c2ccccc2S3)cc1 | 82 | nt | 104 | 89
4 | Cc1cccc(C)c1NC(=O)c1cnc(NC2CCCCC2)cc1C(F)(F)F | 90 | -38 | 101 | 86
5 | O=C(Nc1ccccc1Cl)c1nc(-c2ccccc2)n(-c2ccccc2)n1 | nt | -13 | 102 | nt
6 | Cc1ccc(NC(=O)C(C)Sc2nnc(C)n2C)cc1 (configuration not stated) | 87 | -13 | 101 | 97
7 | Cc1ccc2onc(CNC(=O)NCCN3CCc4ccccc4C3)c2c1 | 71 | -35 | 103 | 101
8 | Cc1ccccc1C(=O)c1cccn1CC(=O)NCc1ccccc1 | 91 | -2 | 115 | 99
9 | O=C(c1cccc(C(F)(F)F)c1)N1CCN(c2ccc(N3CCCCCC3)nn2)CC1 | 94 | -42 | 110 | 98
10 | Cc1cc(S(=O)(=O)Nc2ccc(-c3ccc(N4CCCCCC4)nn3)cc2)c(C)cc1Cl | 86 | nt | 101 | 87
11 | CCOC(=O)c1scc(-c2ccc(C)cc2)c1S(=O)(=O)Nc1ccc(OC)c(Cl)c1 | 83 | nt | 99 | 114
12 | CCOC(=O)c1cc2c(=O)n3ccccc3nc2n(Cc2ccco2)c1=NC(=O)c1cc(C)cc(C)c1 | 72 | -17 | 106 | 116
13 | CCCN(c1nc2nc(C)cc(C)n2n1)S(=O)(=O)c1ccc(C)cc1 | nt | -8 | 104 | nt
14 | CCS(=O)(=O)N1CCc2cc(C(=O)COC(=O)c3cn(C)c4ccccc34)ccc21 | 88 | -5 | nt | 81
15 | CCC(C)OC(=O)CSc1ncnc2sc3c(c12)CCC(C)C3 (configuration not stated) | 104 | nt | 101 | 96
16 | CCc1ccc(C(=O)c2cn(CC(=O)Nc3cc(OC)ccc3OC)c3ccc(C)cc3c2=O)cc1 | 86 | -10 | 105 | 104
17 | CC(C)c1cc(C(=O)NC2CCCCC2)no1 | 85 | -8 | 101 | 107
18 | NC(=S)Nc1ccc(C(F)(F)F)cc1Cl | 77 | -25 | 102 | 71
19 | CC1(C(=O)c2ccccc2)C2c3cc(Br)ccc3OC(=O)C21C(=O)c1ccco1 (configuration not stated) | 91 | -9 | 104 | 122
20 | O=C(CSc1nc(-c2ccc(Cl)cc2)nc2c1Cc1ccccc1O2)N1CCCCC1 | 83 | -31 | 104 | 103
21 | CCOC(=O)c1c(Nc2ccc(Cl)cc2)cc(C)nc1C | 80 | -6 | 111 | 96
22 | CC1=C(C(=O)Nc2ccc(C)cc2C)C(c2cccn2C)n2ncnc2N1 (configuration not stated) | 90 | nt | 100 | 88
23 | O=C(OCc1cc(=O)oc2cc3c(cc12)CCC3)C1CC(=O)N(Cc2ccco2)C1 (configuration not stated) | 78 | -32 | nt | 84
24 | CC1CCCC(NC(=O)COC(=O)c2ccc(Br)cc2)C1C (configuration not stated) | 91 | -3 | nt | 110
25 | CCCCOc1cccc(C(=O)N2CCCCC2C)c1 (configuration not stated) | 101 | -3 | 105 | 112
26 | COC(=O)c1ccc(COC(=O)c2ccccc2C(F)(F)F)cc1 | 96 | 12 | nt | 88
27 | Cc1cc(N2CCC(NC(=O)Nc3ccccc3C)CC2)n2ncnc2n1 | nt | -14 | 102 | nt
28 | CSc1sc(C(=O)N/N=C/c2cccs2)c2c1C(O)CCC2 (configuration not stated) | 91 | -53 | 104 | 94
29 | CCC(C)Cn1c(C(O)c2ccccc2)nc2ccccc21 (configuration not stated) | nt | -2 | 102 | nt
30 | OCCSc1nnc(CCSCc2ccccc2)n1Cc1ccccc1 | nt | -29 | 102 | nt

Rewritten screen by screen: 5 of the compounds above.
14. CCS(=O)(=O)N1CCc2cc(C(=O)COC(=O)c3cn(C)c4ccccc34)ccc21
15. CCC(C)OC(=O)CSc1ncnc2sc3c(c12)CCC(C)C3 (configuration not stated)
16. CCc1ccc(C(=O)c2cn(CC(=O)Nc3cc(OC)ccc3OC)c3ccc(C)cc3c2=O)cc1
17. CC(C)c1cc(C(=O)NC2CCCCC2)no1
18. NC(=S)Nc1ccc(C(F)(F)F)cc1Cl
entry no. | 14 | 15 | 16 | 17 | 18
Sa growth inh second temp | 88 | 104 | 86 | 85 | 77
HCMV NEC inh | -5 | nt | -10 | -8 | -25
GIV Gai3 FP | nt | 101 | 105 | 101 | 102
Sa growth inh | 81 | 96 | 104 | 107 | 71

The main list resumes, starting 2 compounds before the break.
entry | SMILES | Sa growth inh second temp | HCMV NEC inh | GIV Gai3 FP | Sa growth inh
29 | CCC(C)Cn1c(C(O)c2ccccc2)nc2ccccc21 (configuration not stated) | nt | -2 | 102 | nt
30 | OCCSc1nnc(CCSCc2ccccc2)n1Cc1ccccc1 | nt | -29 | 102 | nt
31 | Cn1c2c(c3cc(C4CCCCC4)ccc31)C(=O)CCC2 | 106 | -6 | nt | 88
32 | COC(=O)C1SCCN1C(=O)c1cc(-c2ccccc2)oc1C (configuration not stated) | 79 | 2 | 96 | 106
33 | CC(=O)NC(C)(C)C1CC=C(C)/C(=N\O)C1 (configuration not stated) | 108 | -6 | 102 | 98
34 | CSC1=N/C(=C/c2cccnc2)C(=O)N1Cc1ccccc1 | 85 | -80 | 103 | 91
35 | Cc1ccc(-c2cc(Nc3cccc(Br)c3)nc(C)n2)cc1 | nt | 9 | 100 | nt
36 | COc1cccc(C(=O)Nc2cc3cc(OC)ccc3oc2=O)c1 | 81 | -33 | 104 | 100
37 | CCOC(=O)c1c(NC(=O)/C=C/c2ccc(C(C)C)cc2)sc2c1CCC2 | 93 | -16 | 102 | 95
38 | O=c1n(Cc2ccccc2)c2ccccc2n1Cc1ccccc1 | 100 | nt | 92 | 96
39 | CSc1nnc(C2CCN(C(=O)N3CCCC3)CC2)n1C | 92 | -1 | 97 | 97
40 | COc1cc(CC#N)ccc1C | 103 | -11 | nt | 95
41 | COc1cc(OC)cc(C(=O)NCCn2c(C(F)(F)F)nc3cccnc32)c1 | nt | -10 | 104 | nt
42 | CCSc1nn(CC(=O)Nc2cc(C)ccc2OC)c(N)c1S(=O)(=O)c1ccc(OC)cc1 | nt | 6 | 104 | nt
43 | COc1cccc(NC(=O)c2cc(-c3cccnc3)on2)c1 | nt | -7 | 104 | nt
44 | C=CCn1c(=O)/c(=C/c2ccc3c(c2)OCO3)s/c1=C(/C#N)C(=O)C(C)(C)C | 95 | -12 | nt | 90
45 | CCN(C(=O)COC(=O)CSc1nc2ccccc2n1Cc1ccccc1)c1ccccc1 | nt | -9 | 105 | nt
46 | CC(C)n1cnc2nc(CSc3ccc(NC(=O)Nc4cccc(Cl)c4)cc3)cc(=O)n21 | nt | -20 | 104 | nt
47 | COc1ccc(C2CC(=O)c3cc(-c4nc(-c5cccc([N+](=O)[O-])c5)cs4)c(=O)n(-c4ccc(C)c(C)c4)c3C2)cc1 (configuration not stated) | 95 | -4 | 118 | 101
48 | CCCc1cc(=O)[nH]c(Nc2cc(Cl)ccc2OC)n1 | 84 | -13 | 99 | 99
49 | Cc1ccccc1-n1c(SCC(=O)Nc2ccc(Cl)cc2F)nnc1-c1cc2occc2n1C | 90 | nt | 110 | 142
50 | CC12CNC3(CO)CC1CCC32C (configuration not stated) | 86 | nt | 100 | 118
51 | Cn1cc(S(=O)(=O)N2CCCCC2)cc1C(=O)NC1CCCC1 | nt | -22 | 104 | nt
52 | OCC(O)CNC(=S)NC1CCCCC1 (configuration not stated) | 84 | -11 | 105 | 112
53 | O=S(=O)(c1ccccc1)N1CCc2ccccc2C1 | 115 | 9 | 99 | 91
54 | O=C(CN1/C(=C(/O)c2ccccc2)C(=O)c2ccccc2S1(=O)=O)c1ccccc1 | 79 | nt | 98 | 63
55 | COc1ccc(CNC(=O)CCn2cnc3ccccc3c2=O)cc1 | nt | 4 | 104 | nt
56 | O=c1oc2ccc(Br)cc2cc1-c1nc(-c2ccccc2)no1 | 92 | 5 | 95 | 95
57 | CCC(Sc1nc2n[nH]c(C)c2c(=N)n1-c1ccc(Br)cc1)C(=O)N(CC)CC (configuration not stated) | 106 | nt | 110 | 100
58 | Cc1cccc(Oc2nc3c(C)cccn3c(=O)c2/C=C(\C#N)c2nc3ccccc3[nH]2)c1 | 88 | nt | 106 | 107
59 | CCN(CCC#N)c1ccc(CNCCCn2cnc3ccccc32)c(C)c1 | 87 | 6 | nt | 98
60 | COc1ccc(NC(=O)CCc2nnc3n(C)c(=O)c4sccc4n23)cc1Cl | 88 | 0 | 96 | 99

Some of these compounds in order of the GIV Gai3 FP value, smallest number first.
| # | smiles | GIV Gai3 FP |
| --- | --- | --- |
| 32 | COC(=O)C1SCCN1C(=O)c1cc(-c2ccccc2)oc1C (configuration not stated) | 96 |
| 54 | O=C(CN1/C(=C(/O)c2ccccc2)C(=O)c2ccccc2S1(=O)=O)c1ccccc1 | 98 |
| 45 | CCN(C(=O)COC(=O)CSc1nc2ccccc2n1Cc1ccccc1)c1ccccc1 | 105 |

The list continues:
entry | SMILES | Sa growth inh second temp | HCMV NEC inh | GIV Gai3 FP | Sa growth inh
61 | COC(=O)C1=C(C)NC2=C(C(=O)CC(C)(C)C2)C1c1ccc(OCc2ccc([N+](=O)[O-])cc2)c(OC)c1 (configuration not stated) | nt | -26 | 107 | nt
62 | CCSc1ncc(Cl)c(C(=O)N(Cc2ccccc2)C2CCS(=O)(=O)C2)n1 (configuration not stated) | nt | -15 | 107 | nt
63 | N#CCc1ccc(NC(=O)CCC(=O)O)cc1 | 93 | 1 | 98 | 93
64 | COc1cc(-c2cc(OC)c3c(C)oc(C)c3c(=O)c2)ccc1OC(=O)c1cccc(C)c1 | 82 | -39 | 106 | 90
65 | Cc1ccc(CNc2nc3nc(CNc4ccc(C)cc4C)cc(=O)n3[nH]2)cc1 | nt | -12 | 101 | nt
66 | O=C(CSc1c2c(nc3ccc(Cl)cc13)CCCC2)N1CCN(c2cccc(Cl)c2)CC1 | 91 | -28 | 106 | 102
67 | Cc1cc(C)nc(-n2nc(C)c3c2NC(=O)CC3c2ccc3c(c2)OCO3)n1 (configuration not stated) | nt | -2 | 103 | nt
68 | O=C(COc1ccccc1Cl)Nc1ccc(-c2nc3ccccc3s2)cc1 | 88 | -130 | 104 | 105
69 | CSC1=C(C#N)C(O)(c2cccs2)N=C(C(F)(F)F)N1 (configuration not stated) | 70 | 5 | 98 | 103
70 | CC(C(=O)NC1CCCCC1)N1C(=O)C2C3C=CC(C3)C2C1=O (configuration not stated) | 96 | 16 | 104 | 98
71 | O=C(/C=C/C(=O)Nc1ccc(F)c(Cl)c1)Nc1ccc(F)c(Cl)c1 | 96 | 4 | 104 | 116
72 | O=C(NCCc1ccccc1)c1ccc2cn[nH]c2c1 | 107 | 9 | 106 | 100
73 | C/C(=C\C(=O)C(F)(F)F)NCc1ccc(S(N)(=O)=O)cc1 | 91 | -20 | nt | 84
74 | COC(=O)C(NC(=O)NC1CCCCC1)C(C)C (configuration not stated) | 96 | 13 | 105 | 97
75 | O=c1nc(N2CCOCC2)nc(Nc2ccc3ccccc3c2)[nH]1 | 75 | nt | 100 | 101
76 | CCC1(C)NC(=O)N(NC(=O)c2ccc(S(=O)(=O)N3CCCC3)cc2)C1=O (configuration not stated) | 105 | 9 | nt | 109
77 | Cc1ccc(NCc2cccn2-c2nnc(N3CCC(C(=O)NCCc4ccccc4)CC3)s2)cc1 | 94 | -6 | 101 | 108
78 | Clc1cc(Nc2c3c(nc4nc(-c5ccccc5)nn24)CCCC3)ccc1N1CCOCC1 | nt | 13 | 97 | nt
79 | COc1ccc(-n2nc3cc(C)c(NC(=O)c4ccc(-c5ccc(Br)cc5)o4)cc3n2)cc1 | 81 | -41 | 110 | 97
80 | Cc1ccc(CCN2CC(C(=O)O)CC2=O)cc1 (configuration not stated) | 92 | -24 | 103 | 103
81 | COc1ccc(S(=O)(=O)N2CCCC(c3nc4ccccc4c(=O)[nH]3)C2)cc1 (configuration not stated) | 77 | -25 | 97 | 96
82 | O=C(/C=C/c1ccccc1)OCC(=O)N1CCc2ccccc21 | 88 | -41 | nt | 134
83 | O=C(Nc1ccccc1C(F)(F)F)Nc1c[nH]c(=O)[nH]c1=O | 94 | nt | 108 | 88

Look-ups from the list:
Under GIV Gai3 FP, no. 67 has 103
Under GIV Gai3 FP, no. 68 has 104
Under Sa growth inh second temp, no. 77 has 94
Under Sa growth inh, no. 81 has 96
Under Sa growth inh second temp, no. 80 has 92
Under Sa growth inh second temp, no. 64 has 82
